Compound activity as filed in PubChem.
Sa ugtP lethal: compounds lethal to S. aureus RN4220 ugtP deletion mutant | OD600 growth, 16 h; some inactives read as strong as hits | growth inhibition, % (concentration not given with the values) | 330,000 compounds, 0.54% hits | AID 1259309;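 active means z-score under -3 and OD600 up to 0.15 on both plates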;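 further: plate controls were untreated wells for no effect and antibiotic for full effect; wells of about 80 µL received 100 nL stock; the first replicate is given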
Bead autofluor: flagged as autofluorescent in microsphere protease counterscreen; compound autofluorescence counterscreen, microsphere flow cytometry; active compounds read high; fluorescence intensity (no concentration beside the values); 360,000 compounds, 3.1% hits; AID 624483;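 active means at least 3 SD above the mean of all compounds, about 16000 in these data; inconclusive means too few beads counted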;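 further: 100 nL of 1 mM stock went into each well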
Sa RN4220 lethal: kills Staphylococcus aureus RN4220 | 330,000 compounds, 0.33% hits | S. aureus RN4220 growth, OD600, 16 h | inhibition, % (concentration not given with the values) | AID 1259311;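 active means z-score of -3 or lower and OD600 up to 0.18 on both plates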;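 further: plate controls were untreated cells for no effect and reference antibiotic for full effect; stock transfer was 100 nL into about 80 µL; one replicate is shown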
PrP 5UTR inh: suppresses PrP 5' UTR mRNA reporter expression. cell-based PrP 5' UTR mRNA reporter, plate reader. 340,000 compounds, 0.35% hits. inhibition, % (concentration not given with the values). AID 488862;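 active means every replicate at 50% or more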;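 further: 0 = median of the neutral control wells; tested in H4 reporter cells; numbers are from one replicate; inactives centre near -14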
BJeLR viability: BJeLR cell viability loss | AID 1554 | inhibition, % (test concentration not listed) | 300,000 compounds, 0.17% hits | BJeLR (HRASV12) viability, CellTiter-Glo ATP luminescence, 48 h; reference of the scale not given here;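 active means replicate mean above 50%; inconclusive means above 50% but judged a plate artefact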;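 further: 50 nL library stock added to about 25 µL; numbers are from one replicate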
Mtb hypoxia inh: Mtb hypoxia fluorescent reporter inhibition; M. tuberculosis hypoxia-regulated fluorescent reporter, fluorescence; fluorescence inhibition, % (concentration not given with the values); 300,000 compounds, 0.1% hits;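 active means 35 to 45% if threefold the growth effect, above 45% if 1.5-fold the growth effect; inactive means the rest, general growth blockers included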;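 further: wells of about 50 µL received 100 nL stock; 0% = vehicle wells and 100% = reference inhibitor wells; whole bacteria with a GFP reporter of the hypoxia response; strong numbers were not always called active; many hits fall short of the cut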
Mtb hypoxia inh growth: recorded beside Mtb hypoxia inh, whose call it bears; growth inhibition, %; measured here: M. tuberculosis growth (absorbance);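 0% = vehicle and 100% = reference antibiotic; read after six days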
* hit, by the source's call; ? = inconclusive; . = not tested or not shown.

SMILES	Sa ugtP lethal	Bead autofluor	Sa RN4220 lethal	PrP 5UTR inh	BJeLR viability	Mtb hypoxia inh	Mtb hypoxia inh growth
O=C(CCNS(=O)(=O)c1ccccc1C(F)(F)F)N1CCCCCCC1	7	4187	7.1	-1	.	1	-2
COC(=O)c1ccc(Cn2nnc3c(=O)[nH]c(C4CCN(S(=O)(=O)c5cc(C)ccc5C)CC4)nc32)cc1	4	5581	-2.6	-10	2	4	9
CCOc1ccc(CSC(=N)N)cc1[N+](=O)[O-]	-9	2529	-12	-19	2	2	10
CCc1cccc(NC(=O)CCc2nc3sc4c(c3c(=O)[nH]2)CCCC4)c1	-8	6427	-1.3	-14	-10	0	10
c1ccc2c(c1)oc1c(N3CCOCC3)ncnc12	-3	2705	5.3	-9	2	.	.
COc1ccc(N2CCN(C(=O)C(OC(C)=O)c3ccccc3)CC2)cc1 (configuration not stated)	16	10093	3.1	-19	1	12	14
Cc1ccc[n+](Cc2ccc([N+](=O)[O-])cc2)c1	8	4329	5.6	-32	2	11	9
CC(C)[C@H](NC(=O)NCCc1ccc(Cl)cc1)C(=O)O	7	17382*	2.9	-21	-3	3	5
CCc1cc2c(=O)c(-c3nc4ccccc4n3C)c(CCCC(=O)O)oc2cc1OC(=O)C(C)(C)C	13	4205	8.8	-28	-1	8	0
COc1ccc(N2CCN(C(=O)c3oc4c(c3C)C(=O)CCC4)CC2)cc1	1	3909	-2.9	-10	1	1	-2
O=C(Nc1ccc(NC(=O)c2cc([N+](=O)[O-])ccc2N2CCOCC2)cc1)c1cccs1	-9	4545	1.0	-16	4	-8	4
CC12CCC(=O)N1C(C(=O)Nc1ccccc1N1CCOCC1)CS2 (configuration not stated)	.	4464	.	-11	9	.	.
CC(C)(c1ccc(O)cc1)c1ccc(O)cc1	-2	3262	7.1	8	-8	2	4
Cc1oc(-c2ccccc2F)nc1CS(=O)(=O)CC(=O)NCc1ccccc1Cl	-6	5433	-5.5	-25	-7	6	7
O=C(NC(=O)c1ccc(C(F)(F)F)cc1)Nc1ccc(-c2cnco2)cc1	3	5081	4.9	6	9	-5	-7
Cn1nc(-c2ccccc2)c2ncc(C(F)(F)F)cc21	5	3676	4.2	-16	-3	-1	-2
COc1ccc(S(=O)(=O)N2CCC(C(=O)NCCC(=O)Nc3nccs3)CC2)cc1	10	5390	0.2	-29	-1	6	4
COc1nc(NC23CC4CC(CC(C4)C2)C3)nc(OC)n1	-17	2119	-5.2	8	13	.	.
Cc1cc(NC(C)C)n2c(nc3ccccc32)c1C#N	2	3748	18	-1	4	2	9
C=CCn1nnnc1-c1cccc(Cl)c1	4	4620	4.4	-8	-19	0	-7
Cc1ccc(NC(=O)CCS(=O)(=O)c2ccccc2)cc1S(=O)(=O)N1CCOCC1	10	3353	3.5	1	15	7	3
CCOC(=O)NN=C1CC(C)S(=O)(=O)c2ccc(Cl)cc21 (configuration not stated)	12	.	1.1	.	.	-3	1
CCC(CO)Oc1cc(NCc2ccc(C(C)(C)C)cc2)c2ncn(C(C)C)c2c1 (configuration not stated)	7	4348	5.8	-12	.	4	5
Cc1cc(C)n2c(SCc3nnc(-c4cccs4)o3)nnc2n1	2	3495	2.5	-34	1	-8	5
Cc1ccc(/C(O)=C/C(=O)C(=O)NC23CC4CC(CC(C4)C2)C3)cc1	10	3997	26	7	-15	16	6
N#CC1=C(N)Oc2ccc3ccccc3c2C1c1cccnc1 (configuration not stated)	2	4539	10	-42	19	15	6
COC(=O)c1sc(=S)sc1C(=O)OC	6	9573	3.8	-14	8	16	10
Cc1cc(NC(=O)Cc2ccccc2)nc2c1c(=O)oc1ccccc12	8	5624	4.4	-14	-16	7	7
Cc1[nH]c2ccccc2c1CCNC(=O)c1ccc2c(c1[N+](=O)[O-])C(=O)c1ccccc1C2=O	.	8526	.	-30	2	.	.
CSCCC(CO)NC(=O)OCc1ccccc1 (configuration not stated)	8	4751	4.8	-13	5	-3	-4
Nc1nc(N)c2[nH]cnc2n1	-3	.	2.9	.	-5	.	.
Nc1ccnn1Cc1cccs1	2	2119	5.0	-19	5	7	3
COc1cccc(-c2nnc(NC(=O)c3cccc(F)c3)o2)c1	98*	5739	98*	-12	9	-2	7
CCO[C@@H]1OC(C(=O)N2CCN(Cc3ccc4c(c3)OCO4)CC2)=C[C@H](c2ccc(Br)cc2)[C@H]1CCCO	.	3770	.	-9	0	.	.
C[C@@H]1C=C(C(=O)NCc2nc3ccccc3[nH]2)O[C@H](OCCCCO)C1	.	4041	.	6	1	.	.
CC(C)c1c(O)cc(-c2ccncc2)n(-c2ccc(Cl)cc2)c1=O	5	2544	6.6	-13	-12	-5	-2

The final 2 entries of the part above lead into the next:
SMILES	Sa ugtP lethal	Bead autofluor	Sa RN4220 lethal	PrP 5UTR inh	BJeLR viability	Mtb hypoxia inh	Mtb hypoxia inh growth
C[C@@H]1C=C(C(=O)NCc2nc3ccccc3[nH]2)O[C@H](OCCCCO)C1	.	4041	.	6	1	.	.
CC(C)c1c(O)cc(-c2ccncc2)n(-c2ccc(Cl)cc2)c1=O	5	2544	6.6	-13	-12	-5	-2
Cc1ccc(SCc2c(C(=O)NN=Cc3ccccc3)nnn2-c2nonc2N)cc1	12	.	3.8	.	.	-3	-7
CN1CCC2(CC1)c1ccccc1-c1ccccc12	-4	2835	0.6	3	.	7	4
Cc1cc(C)nc(Nc2n[nH]c(COc3ccc4ccccc4c3)n2)n1	-1	22079*	1.3	3	-1	4	6
Nc1nonc1C(=O)NCCNc1ccc([N+](=O)[O-])cc1	5	3751	3.7	-22	3	1	-3
CC(C(=O)Nc1ccccc1Oc1ccccc1)c1ccccc1 (configuration not stated)	8	2432	3.5	0	1	3	6
O=C(COC(=O)Cc1n[nH]c(=O)c2ccccc12)Nc1c(Br)cc([N+](=O)[O-])cc1Br	2	3893	5.4	-21	.	7	2
c1ccc(C[C@H]2CN=C(Nc3ccccc3)N2CCCC2CCCC2)cc1	.	4345	.	-7	-2	.	.
CCOc1ccc(CNC(=O)c2nnc(CS(=O)(=O)c3ccccc3)o2)cc1OC	1	4883	-10	-7	4	9	0
O=C(O)c1cccc(N2C(=O)c3cccc4c(Cl)ccc(c34)C2=O)c1	.	3633	.	-9	2	.	.
CC(=O)Nc1ccc([As](=O)(O)c2ccc([N+](=O)[O-])cc2)cc1	0	4799	6.4	-17	3	19	6
CCNC(=S)Nc1ccccc1-c1ccccc1	1	2095	4.7	-5	9	1	-6
COc1ccc(NC(=O)C/C(C)=N/NC(=O)c2cccs2)c([N+](=O)[O-])c1	.	3099	.	14	1	.	.
CCC(C)Nc1nc2c(c(=O)n(C)c(=O)n2C)n1C (configuration not stated)	-5	4165	1.9	-6	-2	7	-4
Cn1ccnc1C(O)(c1ccccc1)c1ccccc1	5	4749	2.5	.	6	18	-3
Cc1cc2cc(C(=O)N3CCc4c([nH]c5ccccc45)C3c3ccccn3)ccc2o1 (configuration not stated)	7	4779	-3.1	-10	16	-12	2
CCOC(=O)/C(C#N)=C\c1ccc(N2CCN(C)CC2)cc1	4	8201	1.9	-3	-3	-2	5
Cc1ccc(C(=O)NNC(=O)C2CSC3(C)CCC(=O)N23)cc1 (configuration not stated)	2	5669	2.1	-25	-1	6	1
CN1CCCN(C(=O)C2CCCCC2)CC1	7	2029	3.1	-4	-4	20	2
CCOc1cccc(NC(=O)C2CC(=O)N(C)C2)c1 (configuration not stated)	-3	7985	3.0	1	3	-4	5
Cc1ccc(S(=O)(=O)CCC(=O)OCC(=O)N2CC(=O)Nc3ccccc32)cc1	-10	22432*	-5.3	-5	0	-12	-5
C=CCNc1nc2c(c(=O)[nH]c(=O)n2C)n1Cc1cccc(C)c1	2	5990	-0.3	-16	.	7	5
O=C(CC12CC3CC(CC(Br)(C3)C1)C2)NC1=NCCS1	6	3898	6.9	-1	-5	14	5
CCOc1ccc(OCC)c(NC(=O)C2CCCN(c3nc(C)cc(C)n3)C2)c1 (configuration not stated)	-9	10978	-1.6	-25	5	5	4
COc1ccc(F)cc1S(=O)(=O)n1nnc2ccccc21	-4	4464	-9.4	-9	-1	0	2

Seven entries from above, ordered by heavy-atom count, falling:
SMILES	Sa ugtP lethal	Bead autofluor	Sa RN4220 lethal	PrP 5UTR inh	BJeLR viability	Mtb hypoxia inh	Mtb hypoxia inh growth
Cc1cc2cc(C(=O)N3CCc4c([nH]c5ccccc45)C3c3ccccn3)ccc2o1 (configuration not stated)	7	4779	-3.1	-10	16	-12	2
CCOc1ccc(OCC)c(NC(=O)C2CCCN(c3nc(C)cc(C)n3)C2)c1 (configuration not stated)	-9	10978	-1.6	-25	5	5	4
Cc1ccc(C(=O)NNC(=O)C2CSC3(C)CCC(=O)N23)cc1 (configuration not stated)	2	5669	2.1	-25	-1	6	1
CCOC(=O)/C(C#N)=C\c1ccc(N2CCN(C)CC2)cc1	4	8201	1.9	-3	-3	-2	5
O=C(CC12CC3CC(CC(Br)(C3)C1)C2)NC1=NCCS1	6	3898	6.9	-1	-5	14	5
CCC(C)Nc1nc2c(c(=O)n(C)c(=O)n2C)n1C (configuration not stated)	-5	4165	1.9	-6	-2	7	-4
CN1CCCN(C(=O)C2CCCCC2)CC1	7	2029	3.1	-4	-4	20	2

Additional results
SMILES	Sa ugtP lethal	Bead autofluor	Sa RN4220 lethal	PrP 5UTR inh	BJeLR viability	Mtb hypoxia inh	Mtb hypoxia inh growth
CCN1C(=O)N(C)C(c2ccccc2)C(C(C)=O)=C1C (configuration not stated)	2	.	5.8	.	.	21	14
CN1CCN(Cc2cn(C)c3ccccc23)CC1CCO (configuration not stated)	1	3354	0.7	10	-8	-7	-5
O=C(NCc1ccc2c(c1)OCO2)c1ccccn1	-3	2973	6.4	-10	-4	.	.
Cc1ccc(-c2ccc(S(=O)(=O)Nc3cccnc3)cc2)cc1	.	4769	.	-2	-2	.	.
CCOc1ccc(Nc2nc(Cc3nnc(SCC(=O)c4ccc(C)cc4)o3)cs2)cc1	-1	10476	6.2	-32	15	13	-3
O=C(CSc1nnnn1C1CCCC1)N1CCOCC1	-1	3267	1.7	-8	-9	7	3
CC(NC(=O)c1cc2c(s1)CCCC2)C(C)(C)C (configuration not stated)	-20	16452*	-8.8	-7	.	7	18
Cc1ccc(NS(=O)(=O)c2ccc(OCC(=O)NCc3ccco3)cc2)cc1	14	3751	5.4	-6	2	.	.
O=C(Cc1ccccc1[N+](=O)[O-])OCC(=O)N1CCN(c2ccccc2)CC1	9	5355	1.2	-5	1	4	4
Cn1cc(C=C2C(=O)NC(=O)NC2=O)c2ccccc21	8	3286	-1.3	-3	12	3	-2
CCOC(=O)C1CCCN(C(=O)c2cc3cc(Br)ccc3oc2=O)C1 (configuration not stated)	1	4081	1.8	-12	-2	11	8
CC1CN2C(c3ccc(Cl)cc3)=CSC2=N1 (configuration not stated)	-5	3295	18	-11	-1	9	-3

Retrieved by structure from the list above (three):
SMILES	Sa ugtP lethal	Bead autofluor	Sa RN4220 lethal	PrP 5UTR inh	BJeLR viability	Mtb hypoxia inh	Mtb hypoxia inh growth
CCN1C(=O)N(C)C(c2ccccc2)C(C(C)=O)=C1C (configuration not stated)	2	.	5.8	.	.	21	14
O=C(NCc1ccc2c(c1)OCO2)c1ccccn1	-3	2973	6.4	-10	-4	.	.
CCOC(=O)C1CCCN(C(=O)c2cc3cc(Br)ccc3oc2=O)C1 (configuration not stated)	1	4081	1.8	-12	-2	11	8

Further structures follow:
SMILES	Sa ugtP lethal	Bead autofluor	Sa RN4220 lethal	PrP 5UTR inh	BJeLR viability	Mtb hypoxia inh	Mtb hypoxia inh growth
Cc1cc(C)nc(Nc2ncc(O)n2-c2ccccc2)n1	0	11498	3.6	-5	0	5	5
Cc1cc(=O)oc2c1c(C)nn2-c1nn[nH]n1	3	3862	2.9	-10	2	9	5
COc1ccc(CCN2CC(C(=O)NCc3cccc4[nH]ccc34)CCC2=O)cc1 (configuration not stated)	3	?	2.8	-15	-4	-15	-1
COCC(=O)NNC(=O)c1ccccc1OC	0	2082	6.8	-33	2	1	13
CN1C(=O)C(C)(C)c2cc(S(=O)(=O)NCC3CCC(C(=O)NCc4ccc(F)cc4)CC3)ccc21 (configuration not stated)	1	4997	5.0	-13	-5	16	8
CCOC(=O)N1CCN(C(=O)COc2ccc([N+](=O)[O-])cc2)CC1	12	1993	3.2	-5	-3	9	-1
